Assay outcomes from PubChem.
UCH37 DUB inh: human UCH37 deubiquitinating enzyme inhibition; purified proteasome/UCH37, Ub-AMC cleavage fluorescence; 0.33% of 330,000 active; inhibition, % (concentration not given with the values);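 active = mean of two replicates above 20%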;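 note: 0% = compound-free wells with enzyme and 100% = wells lacking proteasome; stock transfer was 100 nL into about 20 µL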
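System: Proteasome-associated human UCH37 deubiquitinase; Input: 0.15 nM proteasome in added enzyme buffer; Also added: Ub-AMC substrate from 1 µM stock; Incubation: 30 min compound-proteasome preincubation then 25 min substrate reaction, room temperature; Detection: fluorescence, ex 355 nm, em 460 nm; Read-out: % inhibition of Ub-AMC cleavage fluorescence; Benchmarks: no-proteasome and no-compound wells.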
Beta2AR agonist: agonists of human beta-2 adrenergic receptor inducing internalization. AID 504454. 0.43% of 340,000 active. Am2.2-beta2AR cells, FAP receptor internalization, flow cytometry; reference of the scale not given here. P07550. response, % (concentration not given with the values);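 active = response above a set limit, near 3 SD of response in nonfluorescent compounds, cut at about 42% in these data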;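 note: stock transfer was 100 nL into about 11 µL; a reference agonist was the positive control; negative values mostly stem from fluorescent compounds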
Target sequence (P07550 whole entry, looked up): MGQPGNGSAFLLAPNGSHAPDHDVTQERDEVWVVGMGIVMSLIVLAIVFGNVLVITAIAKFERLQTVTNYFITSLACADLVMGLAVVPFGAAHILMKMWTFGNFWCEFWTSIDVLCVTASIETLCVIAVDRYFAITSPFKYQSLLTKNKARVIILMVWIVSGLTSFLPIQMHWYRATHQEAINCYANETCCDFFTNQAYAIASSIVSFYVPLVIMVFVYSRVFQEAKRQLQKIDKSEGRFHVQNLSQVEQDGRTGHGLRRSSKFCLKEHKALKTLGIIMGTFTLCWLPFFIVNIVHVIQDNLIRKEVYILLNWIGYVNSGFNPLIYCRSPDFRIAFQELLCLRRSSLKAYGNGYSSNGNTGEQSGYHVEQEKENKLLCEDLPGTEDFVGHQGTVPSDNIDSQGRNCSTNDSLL
Ecoli growth: inhibitors of Escherichia coli growth; OD600, 23 h; hits give low values; OD600 absorbance (concentration not given with the values); 0.21% of 330,000 active;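 active = OD600 absorbance below the run mean of sample wells minus 3.6 SD, in any replicate, cut at about 0.56 in these data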;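 note: stock transfer was 300 nL into about 60 µL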
LANA-H2A inh: blocks KSHV LANA binding to histone H2A/H2B | Q9QR71 | AID 2629 | 0.6% of 320,000 active | cell-free LANA-H2A/H2B peptide, fluorescence polarization | inhibition, % (concentration not given with the values); in the data active = inhibition mostly above about 10%, no sharp cut-off; inactive = mostly below about 6.7%;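 note: stock transfer was 7.5 nL into about 10 µL; 0% = median of vehicle wells and 100% = median of positive control wells; one replicate is shown; the record names a cut of 25% in any replicate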
FGF22 binding: FGF22 (human) thermal shift binding. Q9HCT0. recombinant FGF22 thermal shift, SYPRO orange fluorescence; percent of sucrose octasulfate shift, DMSO zero. calls only at 9.99 µM. 1.5% of 340,000 active;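 active = melting point raised past a set limit in the mean and every replicate; three in four hits are not shown here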
Target sequence (Q9HCT0 whole entry, looked up): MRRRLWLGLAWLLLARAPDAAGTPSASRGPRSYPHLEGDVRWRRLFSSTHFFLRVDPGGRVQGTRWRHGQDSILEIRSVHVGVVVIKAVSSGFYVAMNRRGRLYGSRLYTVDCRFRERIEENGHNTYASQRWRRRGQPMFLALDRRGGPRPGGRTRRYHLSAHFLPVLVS
HNF4A DNA FP: change in binding of human HNF4 alpha to DNA | HNF4a-FITC DNA binding, fluorescence polarization, 1 h | activity change, % at 10 µM | P41235 | 0.3% of 360,000 active | AID 1224865; in the data active = activity change above about 30%, passing the limit was not always enough;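 note: controls were the assay level and a saturating level of protein; the project sought stronger binding though the title names inhibitors; some compounds called inactive have numbers as strong as hits; positive values seem to mean higher polarization but the record does not say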
ALR H2O2 inh: blocks human ALR sulfhydryl oxidase activity. P55789. purified ALR, DTT oxidation, H2O2 HRP-luminol luminescence. inhibition, % (test concentration not listed). 3.8% of 290,000 active;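 active = mean and each replicate at 75% or more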;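 note: stock transfer was 7.5 nL into about 7.5 µL; 0% = neutral wells and 100% = wells with inactivated enzyme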
Target sequence (P55789 whole entry, looked up): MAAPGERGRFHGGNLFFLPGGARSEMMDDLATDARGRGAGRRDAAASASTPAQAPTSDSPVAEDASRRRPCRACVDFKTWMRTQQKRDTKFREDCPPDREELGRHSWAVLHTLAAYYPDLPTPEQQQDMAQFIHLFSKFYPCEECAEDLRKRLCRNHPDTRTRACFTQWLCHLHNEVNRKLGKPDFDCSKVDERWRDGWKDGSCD
* hit, by the source's call; i = inactive; / = no result given; + = active, no number. This is a subset. The share of hits here may be higher or lower than overall.

SMILES	UCH37 DUB inh	Beta2AR agonist	Ecoli growth	LANA-H2A inh	FGF22 binding	HNF4A DNA FP	ALR H2O2 inh
Cc1ccc(S(=O)(=O)Oc2ccc3ccc(O)cc3c2)cc1	-0.9	-2	0.68	-2.0	i	-1.1	56
CCOC(=O)C(NC(=O)Nc1ccc(F)cc1F)(Oc1ccccc1)C(F)(F)F (stereo unspecified)	/	4	/	-1.8	/	13	3
Cc1cc(NC(=O)C2C3C(=O)N(CCC(C)C)C(C(=O)NCc4ccccc4)C34C=CC2(C)O4)no1 (stereo unspecified)	4.5	-5	0.68	4.6	/	-1.2	-5
CN(C(=O)c1ccc2c(=O)n3c(nc2c1)CCCCC3)c1ccccc1Cl	0.4	-12	0.67	6.3	i	2.5	-5
Cc1nc(NC(=O)COC(=O)c2cc3c(s2)CCC(C)C3)c(Cl)cc1Cl (stereo unspecified)	3.1	-4	0.75	-0.7	i	-1.0	-27
COc1cccc(CN2CCc3ccc(NC(=O)CCc4ccc(C)cc4)cc3C2)c1O	/	-6	/	/	i	3.6	16
COc1ccc(C(CNC(=O)c2cc3c(s2)CCC(C)C3)N2CCOCC2)cc1 (stereo unspecified)	-0.9	14	0.66	4.3	i	1.3	1
CCN(CC)CCn1c(NCc2cccc(OC)c2OC)nc2ccccc21	-0.9	-8	0.72	-2.6	/	1.3	72
CC1CCCN(C(=O)Cn2nnc(-c3ccc(S(C)(=O)=O)cc3)n2)C1 (stereo unspecified)	-0.1	-8	0.71	-0.9	i	1.6	-3
CCC(C)Nc1nnc(SCC(=O)c2c(N)n(C3CC3)c(=O)[nH]c2=O)s1 (stereo unspecified)	1.2	-1	0.68	4.0	i	5.5	0
COc1ccc(CNC(=O)C2CCN(S(=O)(=O)c3ccccc3)CC2)cc1	2.1	-2	0.65	0.3	i	5.7	1
O=C(NCCc1ccccc1)c1ccc2c(c1)OCO2	4.0	-5	0.65	1.2	i	1.8	/
CCSc1nc(C)cc(Oc2ccc(=O)n(C)n2)n1	0.4	2	0.69	-1.4	/	-2.1	-14
CCc1ccc2oc(-c3cc(N=Cc4cccc(OC)c4O)ccc3O)nc2c1	9.1	/	0.69	-3.9	/	/	-3
COc1ccc(CC(=O)O/N=C(\N)c2ccccc2)cc1OC	0.3	10	0.67	3.5	i	4.7	-4
CN1/C(=C/C=C(C#N)C#N)C(C)(C)c2ccccc21	2.6	9	0.77	7.5	i	-96	-53
CC(OC(=O)C1CCCO1)C(=O)NC1CCCC1 (stereo unspecified)	0.2	4	0.72	1.4	/	1.3	-2
C[C@H]1CN([C@@H](C)CO)C(=O)c2cc(NS(=O)(=O)c3ccc(F)cc3)ccc2O[C@H]1CN(C)S(=O)(=O)c1cn(C)cn1	-32	1	0.77	-0.6	i	1.9	-4
COc1ccc(CNS(=O)(=O)CCNC(=O)c2ccc3c(c2)OCO3)cc1	1.5	5	0.69	5.2	i	-0.5	3
CN(CC(=O)N1CCN(c2ccccc2F)CC1)S(=O)(=O)c1cnc[nH]1	2.0	2	0.67	-1.2	/	4.0	0
CC(C)c1ccc(/C=C/C(=O)NCCC2=CCCCC2)cc1	14	1	0.7	-4.0	i	-2.2	/
O=C(NC1CCCCC1)c1ccc2snnc2c1	-1.0	-3	0.71	-1.5	i	3.0	1
COc1cccc(C(=O)COC(=O)c2cccs2)c1	0.7	-5	0.66	4.9	i	5.5	3
CCn1c(C(C)NC(=O)c2ccccc2C)n[nH]c1=S (stereo unspecified)	4.3	1	0.7	4.8	/	0.6	62
CCN(C(=O)c1cc2c(s1)-c1ccccc1OC2)c1cc(OC)ccc1OC	-1.5	-6	0.8	0.3	i	-2.7	-12
CC(=O)Nc1ccc(S[C@@H](CCN2CC[C@H](O)CCC2=O)c2ccccc2)cc1	1.3	-12	0.78	-3.4	i	0.1	99*
O=C(NCc1ccc(F)cc1)C(c1ccccc1)N(C(=O)c1csnn1)C1CC1 (stereo unspecified)	1.3	-3	0.65	8.4	i	0.8	-5
COc1ccccc1NC(=O)C1C2C=CC3(CN(Cc4cccnc4)C(=O)C13)O2 (stereo unspecified)	0.6	-2	0.77	3.7	i	2.5	-25
Cc1cc2occ(CC(=O)NC3=NCCS3)c2cc1C(C)C	0.9	2	0.69	-1.0	/	3.0	9
CN(CC(=O)Nc1ccccc1Br)C(=O)CN1CCN(Cc2ccc(Cl)cc2)CC1	2.0	3	0.64	-0.9	i	0.8	2
Cc1nn(Cc2ccc(Cl)cc2Cl)c(C)c1NC(=O)C1C2CCC(O2)C1C(=O)O (stereo unspecified)	2.9	6	0.71	3.8	/	-0.4	6
CCCCCCCCCCCC(=O)c1c(O)cccc1O	3.3	20	0.74	1.4	i	-1.4	3
O=C(NC1CCCCC1)c1cccc2c1C(=O)c1ccc(N3CCCC3)cc1S2(=O)=O	-0.7	-5	0.69	-3.5	i	74	-2
CC1=CC(C)(C)N(C(=O)CSc2nncn2C)c2ccccc21	6.1	-2	0.73	3.9	i	-0.5	-1
CC(=O)c1c(O)cc(O)cc1CC(=O)O	-2.0	4	0.64	-1.8	i	-6.6	11
S=C(N/N=C1\CCc2ccccc21)NC1CCCCC1	/	-11	/	-1.7	/	2.6	-2
CSc1ccc(C(=S)N2CCN(C(c3ccccc3)c3ccccc3)CC2)cc1	5.5	5	0.77	2.9	/	1.1	-15
CCc1cc(-c2nc(N)ncc2-c2ccc(Br)cc2)c(O)cc1OC	4.7	-4	0.66	19*	i	-4.7	0
CC1CN(CC(=O)Nc2nc(-c3ccc(Cl)cc3)cs2)CC(C)O1 (stereo unspecified)	/	4	/	-3.3	i	-0.8	/
CC(=O)N(C)c1ccc(NC(=O)Nc2ccc(C)c(C)c2)cc1	0.9	6	0.7	6.5	i	-1.7	10
Cc1ccc(N(C(=O)CS(=O)CC(=O)Nc2ccc(F)cc2)C(C)C(=O)NC(C)(C)C)cc1 (stereo unspecified)	2.5	13	0.71	0.9	i	0.9	0
CCC(C(=O)N/N=C/c1cccnc1)c1ccccc1 (stereo unspecified)	/	1	/	-0.3	i	2.6	-59
COC(=O)c1ccc(CSC2=NC[C@@H]3[C@@H]4C(=O)N(C)C(=O)[C@@H]4[C@](C)(C(=O)OC)N23)cc1	3.8	-2	0.69	/	/	2.6	/
COc1ccc(S(=O)(=O)N(C)C[C@H]2Oc3ccc(NS(=O)(=O)c4c(C)noc4C)cc3C(=O)N([C@H](C)CO)C[C@@H]2C)cc1	2.0	-5	/	5.9	i	0.0	-4
Cc1ccccc1OCC(=O)OCC(=O)Nc1cc(S(=O)(=O)N2CCCCC2)ccc1Cl	2.2	1	0.69	-4.3	i	-0.4	-1
Cc1ccc(-n2nnnc2Sc2ccc(S(=O)(=O)NCCN(C)C)cc2[N+](=O)[O-])cc1	6.6	36	0.71	-6.3	i	2.7	-39
Cc1ccc(C2(C)NC(=O)N(CC(=O)N3CC(=O)Nc4ccccc43)C2=O)cc1 (stereo unspecified)	1.3	-2	0.72	0.0	i	-1.2	0
N#Cc1ccsc1NC(=O)CN1CCN(S(=O)(=O)c2ccccc2C(F)(F)F)CC1	3.8	-9	0.68	-0.8	i	3.4	2
NC(=O)C1C2CCC(C2)C1C(N)=O (stereo unspecified)	4.5	2	0.68	/	i	0.1	/
CC(=O)c1cccc(NC(=O)c2ccncc2)c1	2.7	-3	0.73	4.0	/	1.7	-1
CCC(CC)NC(=O)Nc1ccc(F)c(Cl)c1	2.1	-3	0.59	4.1	i	-0.7	-6
Cn1c(=O)c2c(nc(Oc3ccccc3N)n2C)n(C)c1=O	4.4	4	0.73	1.4	i	2.0	-13
CS(=O)(=O)N(CC(=O)N1CCN(Cc2ccc3c(c2)OCO3)CC1)Cc1ccc(Cl)cc1	1.5	-3	0.67	-0.9	/	1.3	-7
Cc1cc(-c2nnc(SCC(=O)Nc3ccccc3F)n2N)n[nH]1	0.3	1	0.63	5.5	i	1.4	0
CC1CCN(C(=S)Nc2ccc3nc4n(c(=O)c3c2)CCCCC4)CC1	2.2	-2	0.68	1.9	/	-1.2	13
CCOc1ccc(C(=O)Nc2ccc(-c3cc4ccccc4oc3=O)c(C)c2)cc1[N+](=O)[O-]	2.6	-3	0.75	-2.7	i	9.8	0
CSc1ccccc1C(=O)Nc1c(C)cccc1C	2.1	5	0.63	4.7	i	1.6	18
Cc1c(-c2ccccc2)[n+](=O)c(-c2ccc(Br)cc2)c(C)n1[O-]	5.2	-12	0.64	0.9	i	1.8	4
O/N=C(\c1ccc(Cl)cc1)c1ncc(C(F)(F)F)cc1Cl	/	18	/	6.3	/	-2.6	1
Cc1nc(C)c(-c2nnc(-c3ccc(C(C)(C)C)cc3)o2)cc1C(=O)NN	0.2	2	0.69	6.1	/	4.5	0
The list goes on:
SMILES	UCH37 DUB inh	Beta2AR agonist	Ecoli growth	LANA-H2A inh	FGF22 binding	HNF4A DNA FP	ALR H2O2 inh
CCCC(=O)N1CCN(Cc2ccc3c(c2)OCO3)CC1	0.4	2	0.73	7.3	/	2.6	-2
CC(Sc1nnc(C(F)(F)F)n1C)C(=O)NC(N)=O (stereo unspecified)	1.5	5	0.73	0.8	/	0.4	-13
CSc1ccccc1NC(=O)CN(C)C(C)C(=O)NC(=O)NC1CCCCC1 (stereo unspecified)	1.0	1	0.64	-4.0	i	-3.5	/
Nc1c(N(Cc2ccco2)C(=O)COc2ccccc2Cl)c(=O)[nH]c(=O)n1Cc1ccccc1	6.8	-1	0.69	2.7	i	-4.0	3
COc1ccc(-c2nc(SC(CC(=O)NCc3ccccc3)c3ccc(OC)c(OC)c3)n[nH]2)cc1 (stereo unspecified)	3.1	3	0.68	7.5	/	-0.1	95*
COc1ccccc1C(C#N)c1cccc(Cl)n1 (stereo unspecified)	0.9	-2	0.65	-2.9	i	0.3	4
CCOC(=O)C1(C)C=C(Nc2ccc(C)cc2)C(=O)N1c1ccc(C)cc1 (stereo unspecified)	-9.7	-5	0.75	-6.3	i	-0.2	0
Cc1cc(OCC(=O)N2CCN(c3ccccn3)CC2)c(C)cc1Br	-0.5	-14	0.66	1.3	i	-1.7	-1
CC12CCC(C(N)=O)(c3nc4ccccc4nc31)C2(C)C (stereo unspecified)	4.8	4	0.74	-0.7	/	3.6	-11
Cc1ccc(N(CC(=O)NC2CCCCC2)C(=O)c2ccc(C)s2)cc1	3.1	1	0.68	-1.0	/	0.6	10
CNC(=S)N(Cc1ccc(OC)cc1)C1CC(=O)N(c2ccc(C(=O)OC)cc2)C1=O (stereo unspecified)	4.4	/	0.7	-6.0	+	/	-15
CC1CCCN(C(=O)CCNS(=O)(=O)c2ccc3c(c2)oc(=O)n3C)C1 (stereo unspecified)	2.9	-7	0.7	-2.0	i	-5.0	-7
C[C@H](NC(=O)Cc1cccc2ccccc12)C(=O)N1CCOCC1	-1.1	-4	0.7	2.2	i	2.2	2
Nc1nonc1-n1nncc1-c1ccccc1	1.3	-3	0.77	0.5	/	0.7	-5

Six compounds picked at random from those above:
SMILES	UCH37 DUB inh	Beta2AR agonist	Ecoli growth	LANA-H2A inh	FGF22 binding	HNF4A DNA FP	ALR H2O2 inh
COc1ccc(-c2nc(SC(CC(=O)NCc3ccccc3)c3ccc(OC)c(OC)c3)n[nH]2)cc1 (stereo unspecified)	3.1	3	0.68	7.5	/	-0.1	95*
Nc1c(N(Cc2ccco2)C(=O)COc2ccccc2Cl)c(=O)[nH]c(=O)n1Cc1ccccc1	6.8	-1	0.69	2.7	i	-4.0	3
CC12CCC(C(N)=O)(c3nc4ccccc4nc31)C2(C)C (stereo unspecified)	4.8	4	0.74	-0.7	/	3.6	-11
CC(Sc1nnc(C(F)(F)F)n1C)C(=O)NC(N)=O (stereo unspecified)	1.5	5	0.73	0.8	/	0.4	-13
CCCC(=O)N1CCN(Cc2ccc3c(c2)OCO3)CC1	0.4	2	0.73	7.3	/	2.6	-2
C[C@H](NC(=O)Cc1cccc2ccccc12)C(=O)N1CCOCC1	-1.1	-4	0.7	2.2	i	2.2	2
